# Env fusion inh: HIV envelope-mediated fusion inhibition | HeLa-JRFL Env/CEM21 cell fusion, luciferase | inhibition, % at 12.3 µM | 360,000 compounds, 1.1% hits;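 active = mean replicate inhibition score of at least 50 and every replicate individually at or above 50; inconclusive = only one of the two criteria met; inactive = mean below 50 and not all replicates reaching 50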;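 also: 0% = plate neutral controls and 100% = maraviroc near 300 nM; one replicate is shown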
# MT1-MMP act inh: blocks activation of human MT1-MMP. HT1080 RFP-PRO-GFP cells, GFP/RFP ratio fluorescence, overnight; percent of plate control window, DMSO zero. AID 651647. GFP/RFP ratio change, % at 20 µM. P50281. 360,000 compounds, 0.061% hits;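 active = GFP/RFP ratio change of at least 30% with cell ATP level not reduced by more than half and red fluorescence within 50% of control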; also: strong numbers were not always called active
#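 Compound: 20 µM single dose, 1% DMSO / System: HT1080 RFP-PRO-GFP cells / Controls: DMSO and RFP-L50D-GFP cell wells / Read-out basis: GFP/RFP fluorescence ratio / Schedule: overnight compound exposure at 37 °C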
# MT1-MMP act inh RFP: second read-out of MT1-MMP act inh, no call of its own (marks repeat the call); RFP signal change, %; measured here: RFP expression control read;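 0 = vehicle wells; hits needed this value within 50% of zero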
# * = called active by the depositor; ? = inconclusive; nt = not tested or not shown; [ ] = remark or other dose. Only part of the results is shown; count on the stated rates, not on these rows.
molecule	Env fusion inh	MT1-MMP act inh	MT1-MMP act inh RFP
C[C@@H]1CN([C@@H](C)CO)C(=O)CCCn2cc(nn2)CO[C@H]1CN(C)Cc1cccnc1	-5[16.7 µM]	nt	nt
CCCCCN(C(=O)Cc1c(C)n(CCCCC)c2ccccc12)c1ccc(Oc2cccnc2)c(C)c1	13	nt	nt
CC(C)C(=O)Nc1ccc2c(c1)C(=O)N(C)[C@H]1CC[C@H](CC(=O)Nc3ccc(Cl)cc3)O[C@@H]1CO2	-3[16.7 µM]	nt	nt
Cc1ccc(C(=O)N2CCC[C@@H]2C(=O)N2CCC[C@H]2C(=O)NCc2ccccc2)cc1	8	nt	nt
O=S1(=O)c2c(cccc2N2CCCC2)O[C@H](COCc2ccccc2)CN1C1CC1	-8	nt	nt
O=C(C[C@@H]1CC[C@@H]2[C@H](COC[C@H](O)CN2Cc2ccc(Oc3ccccc3)cc2)O1)Nc1nccs1	37[16.7 µM]	nt	nt
CO[C@@H]1CN(C)C(=O)c2ccc(NC(=O)C3CC3)cc2OC[C@H](C)N(C(=O)c2ccncc2)C[C@H]1C	3[16.7 µM]	nt	nt
C#Cc1ccc([C@@H]2C=C(C(=O)N3CCCCCCC3)O[C@H](OCCCCO)C2)cc1	14[16.7 µM]	nt	nt
C=CCN1C(=O)c2n[nH]c(C)c2C1c1ccc(C)cc1 (stereo not given)	-6	nt	nt
COc1ccc2c3c([nH]c2c1)[C@H](CO)N(Cc1ccccc1)CC31CCN(C(=O)Nc2cccc(F)c2)CC1	-4[16.7 µM]	nt	nt
C[C@H]1CN([C@@H](C)CO)C(=O)CCCn2nncc2CO[C@@H]1CN(C)C(=O)Nc1cccc(F)c1	14[16.7 µM]	nt	nt
C[C@H]1CN([C@@H](C)CO)C(=O)c2c(c3ccccc3n2C)-c2ccccc2CO[C@@H]1CN(C)C(=O)[C@H]1CCCN1C	-45[16.7 µM]	nt	nt
O=C(NCC[C@H]1CC[C@@H](NS(=O)(=O)Cc2ccccc2)[C@@H](CO)O1)C1CCC1	3[16.7 µM]	nt	nt
COc1ccccc1NC(=O)N[C@@H]1CC[C@H](CCn2cc(C3(O)CCCC3)nn2)O[C@@H]1CO	14[16.7 µM]	nt	nt
COc1ccc(NC(=O)N(C)C[C@@H]2OCc3ccccc3-c3c(n(C)c4ccccc34)C(=O)N([C@H](C)CO)C[C@@H]2C)cc1	25[16.7 µM]	nt	nt
O=C(NCCc1ccncc1)[C@@H]1[C@@H](CO)[C@@H]2Cn3c(ccc(C4=CCCCC4)c3=O)[C@H]1N2CC1CC1	-2[16.7 µM]	nt	nt
C[C@H](CO)N1C[C@H](C)[C@@H](CN(C)C(=O)C2CCC2)Oc2cc(-c3ccncc3)ccc2S1(=O)=O	-8[16.7 µM]	nt	nt
C[C@@H]1CN([C@H](C)CO)C(=O)c2cc(NC(=O)CCN3CCOCC3)ccc2O[C@@H]1CN(C)Cc1ccc(C(F)(F)F)cc1	-9[16.7 µM]	nt	nt
CN1CCCCC(NC(=O)COCc2ccccc2)C1=O (stereo not given)	-16	nt	nt
CC(C)C[C@@H]1COc2cccc(N3CCCC3)c2S(=O)(=O)N1	6	nt	nt
O=C(NCc1ccccc1)[C@H]1[C@H](CO)[C@H]2Cn3c(ccc(-c4cccnc4)c3=O)[C@H]2N1Cc1cocn1	-2[16.7 µM]	nt	nt
C[C@H](CO)N1C[C@H](C)[C@@H](CN(C)C(=O)NC2CCCCC2)Oc2ccc(N(C)C)cc2C1=O	16[16.7 µM]	nt	nt
CO[C@H]1CN(C)C(=O)c2ccc(NC(=O)Nc3cccc(F)c3)cc2OC[C@@H](C)NC[C@H]1C	0[16.7 µM]	nt	nt
O=C(Cc1c[nH]c2ccccc12)Nc1ccc(Nc2cccnc2)c(-c2ccc(F)c(F)c2)c1	1	nt	nt
O=C(C[C@@H]1CC[C@@H]2[C@H](COC[C@H](O)CN2CCc2ccccc2)O1)NCCCN1CCOCC1	-22[16.7 µM]	nt	nt
COC(=O)C[C@H]1CC[C@H]2[C@@H](COC[C@@H](O)CN2S(=O)(=O)c2ccccc2OC)O1	-4[16.7 µM]	nt	nt
COCCNC(=O)C[C@@H]1C[C@H]2c3cc(NS(=O)(=O)c4ccccc4)ccc3O[C@H]2[C@H](CO)O1	-12[16.7 µM]	nt	nt
CCCCCCCCN1C(=O)[C@@H](CC(=O)N2CCN(C(=O)OCC)CC2)C[C@@]2(C(=O)OC)C1=C[C@H](C1CCCC1)O[C@@H]2C	32	nt	nt
CO[C@@H]1CN(C)C(=O)c2ccc(NC(C)=O)cc2OC[C@H](C)N(Cc2ccccc2F)C[C@@H]1C	8[16.7 µM]	nt	nt
CC(C)NC(=O)N(C)C[C@H]1Oc2ccc(N(C)C)cc2CC(=O)N([C@@H](C)CO)C[C@H]1C	4[16.7 µM]	nt	nt
C[C@H]1CN([C@@H](C)CO)C(=O)Cc2cc(NS(=O)(=O)c3ccc(F)cc3)ccc2O[C@@H]1CN(C)Cc1ccc(-c2ccccc2)cc1	-19[16.7 µM]	nt	nt
CO[C@@H]1CN(C)C(=O)c2cc(NC(=O)c3cc(C)on3)ccc2OC[C@@H](C)N(S(=O)(=O)c2cccc(C)c2)C[C@H]1C	?	nt	nt
C=CCN=C1NC(c2cccc(F)c2)C(C(=O)OC)=C(C)N1Cc1cccc(C(F)(F)F)c1 (stereo not given)	-42	nt	nt
C[C@H](CO)N1C[C@H](C)[C@H](CN(C)C(=O)Nc2cc(F)ccc2F)Oc2cc(C#CC3CC3)ccc2S1(=O)=O	-5[16.7 µM]	nt	nt
O=C(C[C@@H]1CC[C@@H]2[C@H](COC[C@H](O)CN2S(=O)(=O)c2cccc(F)c2)O1)NCc1ccncn1	-9[16.7 µM]	nt	nt
CN(C)c1ccc2c(c1)[C@H]1C[C@H](CC(=O)NCc3ccc(Oc4ccccc4)cc3)O[C@@H](CO)[C@H]1O2	1[16.7 µM]	nt	nt
COc1ccccc1CN1[C@H](C(=O)NCCc2ccncc2)[C@@H](CO)[C@@H]2Cn3c(cccc3=O)[C@@H]21	12[16.7 µM]	nt	nt
CCCN(C(=O)c1cn(CCC)c2ccccc12)c1ccc(Oc2cccnc2)cc1	45	nt	nt
C[C@H]1CCCCO[C@H](CN(C)C(=O)c2ccncc2)[C@@H](C)CN([C@@H](C)CO)C(=O)c2cc(NC(=O)c3ccccc3)ccc2O1	-2[16.7 µM]	nt	nt
CN1C(=O)c2cc(NS(=O)(=O)c3cccc(F)c3)ccc2OC[C@H]2O[C@H](CC(=O)N3CCc4ccccc4C3)CC[C@H]21	0[16.7 µM]	nt	nt
CO[C@@H]1CN(C)C(=O)c2ccc(NC(C)=O)cc2OC[C@@H](C)N(C(=O)CC2CC2)C[C@@H]1C	-6[16.7 µM]	nt	nt
C[C@@H]1CN([C@@H](C)CO)S(=O)(=O)c2ccc(-c3ccccc3)cc2O[C@H]1CN(C)C(=O)c1ccc2c(c1)OCO2	1[16.7 µM]	nt	nt
CO[C@H]1CC[C@@H]2CCN(C)C(=O)[C@H](C)[C@@H](OC)CN(C)C(=O)c3cccc(C#N)c3OC[C@H]1O2	8[16.7 µM]	nt	nt
O=C(C[C@H]1CC[C@H]2[C@@H](COC[C@@H](O)CN2Cc2cc(F)cc(F)c2)O1)Nc1nccs1	-4[16.7 µM]	nt	nt
COc1ccccc1-c1cnc2c(c1)C(=O)N([C@H](C)CO)C[C@@H](C)[C@H](CN(C)C)O2	4[16.7 µM]	nt	nt
COc1ccccc1CNC(=O)C[C@H]1C[C@@H]2c3cc(NC(=O)Nc4ccc(C(F)(F)F)cc4)ccc3O[C@@H]2[C@@H](CO)O1	20[16.7 µM]	nt	nt
O=C(Cc1cn(Cc2ccccc2)c2ccccc12)Nc1ccc(Oc2cccnc2)cc1	8	nt	nt
NC(=O)c1ncn([C@@H]2O[C@H](C(=O)N[C@H](Cc3ccccc3)C(=O)O)[C@@H](O)[C@H]2O)n1	-4	nt	nt

# 3 entries out of the list above, arranged by the value under Env fusion inh, ascending.
molecule	Env fusion inh	MT1-MMP act inh	MT1-MMP act inh RFP
CN1CCCCC(NC(=O)COCc2ccccc2)C1=O (stereo not given)	-16	nt	nt
O=S1(=O)c2c(cccc2N2CCCC2)O[C@H](COCc2ccccc2)CN1C1CC1	-8	nt	nt
CCCN(C(=O)c1cn(CCC)c2ccccc12)c1ccc(Oc2cccnc2)cc1	45	nt	nt

# (more compounds)
molecule	Env fusion inh	MT1-MMP act inh	MT1-MMP act inh RFP
C[C@@H]1CN([C@@H](C)CO)C(=O)c2cc(NC(=O)CCCN(C)C)ccc2O[C@@H](C)CCCCO[C@@H]1CN(C)C	8[16.7 µM]	nt	nt
CN1CCN(C(=O)C[C@H]2C[C@@H]3c4cc(NS(C)(=O)=O)ccc4O[C@@H]3[C@@H](CO)O2)CC1	21[16.7 µM]	nt	nt
CO[C@H]1CN(C)C(=O)c2cc(NC(C)=O)ccc2OC[C@@H](C)NC[C@H]1C	13[16.7 µM]	nt	nt
COCc1cc(N2CCN(C(=O)OC(C)(C)C)C[C@@H]2C)ccc1N1CCN(Cc2ccccc2)[C@H](C)C1	16	nt	nt
Cc1ccc(S(=O)(=O)Nc2ccc3c(c2)C(=O)N([C@@H](C)CO)C[C@@H](C)[C@@H](CN(C)Cc2ccc(C(F)(F)F)cc2)O3)cc1	-27[16.7 µM]	nt	nt
COc1cccc(NC(=O)N2CC3(C2)[C@H](c2ccccc2)[C@@H](CO)N3C(=O)C2CC2)c1	-18[16.7 µM]	nt	nt
COCC(=O)N1C[C@@H](C)[C@H](OC)CN(C)C(=O)c2ccc(NC(=O)c3ccc(OC)cc3)cc2OC[C@@H]1C	58*[16.7 µM]	nt	nt
Cc1cc(=O)n(C(C)Cc2ccccc2)n1C(C)Cc1ccccc1 (stereo not given)	nt	-3	-2
Cc1ccc(S(=O)(=O)N2CCC[C@H]2C(=O)NC2CCCCC2)cc1	nt	3	1
CC(C)CNc1ncnc2[nH]ncc12	nt	5	-7
CC(=NNC(=O)c1ccccc1N)c1ccccc1O	nt	-1	-1
COc1cccc(CCN2C(=O)CCC3=C2CCC3=O)c1	nt	3	4
C[C@@H](c1ccccc1)N1C[C@H](COCc2ccccc2)Oc2cc(N3CC[C@H](O)C3)ccc2S1(=O)=O	nt	0	-3
O=C(COc1ccccc1F)N1N=C(c2cccs2)CC1c1ccco1 (stereo not given)	nt	2	3
OC(Cc1ccnc2ccccc12)C(Cl)(Cl)Cl (stereo not given)	nt	-4	-26
C[C@H](c1ccccc1)N1C[C@@H](COCc2ccccc2)Oc2cc(N3CC[C@@H](N(C)C)C3)ccc2S1(=O)=O	nt	-4	0
O=C(C1CCCCC1)N1C[C@@H](O)[C@H](n2cc(-c3ccc(F)cc3)nn2)C[C@@H]1c1ccc(Cl)cc1	nt	2	-7
CCCCCC(=O)N1C[C@@H](O)[C@H](n2cc(COC(=O)c3ccccc3)nn2)C[C@@H]1c1ccc(C)cc1	nt	8	3
O=C(CC(=O)NN=Cc1ccc2c(c1)CCC2)NN=Cc1ccc2c(c1)CCC2	nt	7	-1
CC(OC(=O)Cc1n[nH]c(=O)c2ccccc12)C(=O)Nc1ccc(S(N)(=O)=O)cc1 (stereo not given)	nt	-4	3
Cc1ccc(S(=O)(=O)N(C)CCN(C)S(=O)(=O)c2ccc(C)cc2)cc1	nt	5	-10
CN1CCCC1CN1CCCC1 (stereo not given)	nt	4	5
O=C(O)CCC(=O)OCCN(Cc1ccc(Oc2ccc([N+](=O)[O-])cc2)cc1)C(=O)C(Cl)Cl	nt	3	-6
Cc1ccc([C@H]2C[C@@H](n3cc(-c4ccc(F)cc4)nn3)[C@H](O)CN2C(=O)c2cccs2)cc1	nt	1	-3

# Just Env fusion inh and MT1-MMP act inh RFP, for 2 of the compounds above:
Molecule	Env fusion inh	MT1-MMP act inh RFP
O=C(NCC[C@H]1CC[C@@H](NS(=O)(=O)Cc2ccccc2)[C@@H](CO)O1)C1CCC1	3[16.7 µM]	nt
COc1ccccc1NC(=O)N[C@@H]1CC[C@H](CCn2cc(C3(O)CCCC3)nn2)O[C@@H]1CO	14[16.7 µM]	nt

# Other entries.
molecule	Env fusion inh	MT1-MMP act inh	MT1-MMP act inh RFP
CCCCC[C@H](C)N1C[C@@H](COCc2ccccc2)Oc2cc(N3CCC[C@H]3CO)ccc2S1(=O)=O	nt	6	-1
CC1(C)COC(c2cc3c(cc2Br)OCO3)OC1	nt	4	-4
O=S(=O)(/C(=C\c1ccc(C(F)(F)F)cc1)c1nc2ccccc2[nH]1)c1ccccc1	nt	-10	-34
O=C(O)CSc1nc2ccc(Br)cc2[nH]1	nt	-1	-4
Oc1ccccc1C=NN=Cc1ccccc1Cl	nt	5	5
CCC(=Cc1ccccc1O)c1ccncc1	nt	3	-7
Cc1ccc(-c2nc3cc(C)c(Br)c(C)n3c2Cc2cccc(Cl)c2)cc1	nt	-4	1
CN1CCC(N2CCN(C3CN(Cc4cn(Cc5cccc(C(F)(F)F)c5)nn4)S(=O)(=O)C3)CC2)CC1 (stereo not given)	nt	0	8
COC(=O)C1(C)COP(=O)(NC23CC4CC(CC(C4)C2)C3)OC1 (stereo not given)	nt	3	-2
Cc1ccc(S(=O)(=O)N2CCOCC2)cc1C(=O)OCC(=O)N(Cc1ccccc1)C(C)C	nt	-4	-4
O=c1[nH]cnc2c1ncn2-c1ccc(N(CCO)CCO)cc1	nt	-2	3
Cn1c(=O)c2[nH]c(Cc3cccc4ccccc34)nc2n(C)c1=O	nt	1	-21

# Assay outcomes: PubChem, several laboratories
